Screening data from PubChem BioAssay.
Autofluor counter: counter-screen for toxin protease inhibitors: compound fluorescence. compound autofluorescence counterscreen, microsphere flow cytometry; hits give high values. fluorescence intensity (test concentration not listed). actives 3.1% (n = 360,000). AID 624483;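 active = at least 3 SD above the mean of all compounds, about 16000 in these data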;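 note: 100 nL of 1 mM stock went into each well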
Sa ugtP lethal: compounds lethal to S. aureus RN4220 ugtP deletion mutant; OD600 growth, 16 h; some inactives read as strong as hits; growth inhibition, % (concentration not given with the values); actives 0.54% (n = 330,000); AID 1259309;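 active = z-score under -3 and OD600 up to 0.15 on both plates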;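 note: plate controls were untreated wells for no effect and antibiotic for full effect; wells of about 80 µL received 100 nL stock; the first replicate is given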
PrP 5UTR inh: inhibition of PrP 5' UTR reporter expression | inhibition, % (no concentration beside the values) | cell-based PrP 5' UTR mRNA reporter, plate reader | actives 0.35% (n = 340,000);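 active = every replicate at 50% or more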;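 note: 0 = median of the neutral control wells; tested in H4 reporter cells; numbers are from one replicate; inactives centre near -14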
Mtb hypoxia inh: Mtb hypoxia fluorescent reporter inhibition. M. tuberculosis hypoxia-regulated fluorescent reporter, fluorescence. fluorescence inhibition, % (test concentration not listed). actives 0.1% (n = 300,000). AID 1159583;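 active = 35 to 45% if threefold the growth effect, above 45% if 1.5-fold the growth effect; inactive = the rest, general growth blockers included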;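 note: wells of about 50 µL received 100 nL stock; 0% = vehicle wells and 100% = reference inhibitor wells; whole bacteria with a GFP reporter of the hypoxia response; strong numbers were not always called active; many hits fall short of the cut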
BJeLR viability: BJeLR cell viability loss; BJeLR (HRASV12) viability, CellTiter-Glo ATP luminescence, 48 h; reference of the scale not given here; inhibition, % (concentration not given with the values); actives 0.17% (n = 300,000); AID 1554;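 active = replicate mean above 50%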;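 note: 50 nL library stock added to about 25 µL; numbers are from one replicate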
Sa RN4220 lethal: kills Staphylococcus aureus RN4220; S. aureus RN4220 growth, OD600, 16 h; inhibition, % (concentration not given with the values); actives 0.33% (n = 330,000); AID 1259311;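 active = z-score of -3 or lower and OD600 up to 0.18 on both plates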;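 note: plate controls were untreated cells for no effect and reference antibiotic for full effect; stock transfer was 100 nL into about 80 µL; one replicate is shown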
Mtb hypoxia inh growth: second read-out of Mtb hypoxia inh, no call of its own (marks repeat the call); growth inhibition, %; measured here: M. tuberculosis growth (absorbance);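 0% = vehicle and 100% = reference antibiotic; read after six days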
Starred values were filed as active, the others as inactive; · = not tested or not shown. Rows are unselected; about 4% have a hit in one of these screens.

Every second line gives: Autofluor counter, Sa ugtP lethal, PrP 5UTR inh, Mtb hypoxia inh, Mtb hypoxia inh growth, BJeLR viability, Sa RN4220 lethal
COc1ccc(C(=O)/C=C/c2ccc(OC)c(Cn3nnc4ccccc43)c2)cc1
 : 2016, 1, -21, 3, 5, -23, -6.0
COc1ccc(CCNS(=O)(=O)c2ccc(Br)s2)cc1
 : 6419, 3, -13, 10, 9, -6, -6.3
CC1CCCC(C)N1CCNC(=O)Cn1nc(-c2ccccc2)ccc1=O (stereo not drawn)
 : 13311, -2, -8, -9, -10, 1, 4.7
COc1cccc(C(CC(=O)NCC2CCCO2)NS(=O)(=O)c2ccc(C)cc2)c1OC (stereo not drawn)
 : 3695, 2, -20, ·, ·, ·, 0.1
Cc1ccc(-c2cc(=O)c3cc(F)ccc3[nH]2)cc1
 : 3919, -5, -41, 17, 9, 3, 3.9
Cc1ccc(CS(=O)(=O)CCC(=O)NCCC2=CCCCC2)cc1
 : 3394, 9, -22, 1, 4, 8, 5.0
CCCCCOc1cccc(C2C(C(=O)c3cccs3)=C(O)C(=O)N2CCN2CCOCC2)c1 (stereo not drawn)
 : 3133, 2, 1, -4, 0, -2, 7.0
COc1ccc(CCNC(=O)CO/N=C/c2cc3c(cc2Br)OCO3)cc1OC
 : 4054, ·, -12, ·, ·, 4, ·
O=C(Cc1cccs1)Nc1ccc2c(c1)C(=O)OC2
 : 10777, 4, -41, -5, -13, -1, 0.6
Cn1c(=O)c2c(nc(Sc3ncccn3)n2Cc2ccccc2Cl)n(C)c1=O
 : 18229*, -1, -6, 8, 8, 12, 8.0
O=C(NNC(=O)C1CCN(S(=O)(=O)c2cccc(C(F)(F)F)c2)CC1)C1CC1
 : 4172, 3, -22, 1, 0, -2, 2.1
COC(=O)CN1C(=O)C2C(C3CC3)N3C(=O)CN(Cc4ccccn4)C(=O)[C@@]3(Cc3ccccc3)C2C1=O (stereo partly drawn)
 : ·, 3, ·, -4, 5, ·, 5.6
CC1(C)Oc2ccc3ccc(=O)oc3c2CC1OC1OC(CO)C(O)C(O)C1O (stereo not drawn)
 : ·, -1, ·, 9, 16, ·, 0.1
O=C(N[C@@H](Cc1c[nH]c2ccccc12)C(=O)O)C1CCN(S(=O)(=O)c2cccs2)CC1
 : 4000, -2, ·, 0, 1, -10, -4.5
CCN(CC)C(=O)CN(C#N)c1nc(OC)nc(N(C)C)n1
 : 9104, -2, -1, -72, -12, 6, 3.4
O=C(CC(=O)c1ccccc1)Nc1ccccc1C(F)(F)F
 : 3573, 7, -33, -3, -2, 12, 2.8
COc1cc(C(C)=NNC(=O)CSc2nc3ccccc3n2C)ccc1O
 : ·, 3, ·, 11, -2, ·, 6.0
CN(C)c1ccc(S(=O)(=O)NCC(=O)OCC(=O)Nc2cc(Cl)cc(Cl)c2)cc1[N+](=O)[O-]
 : 2425, 8, -31, 0, 3, 9, 7.8
O=C(Nc1cccc2cccnc12)c1cccc([N+](=O)[O-])c1
 : 3522, 4, -41, -7, 10, 23, 8.2
COc1cc(OC)cc(C(=O)NC(C(=O)OCC(=O)Nc2ccc(C(N)=O)cc2)C(C)C)c1 (stereo not drawn)
 : ·, -1, ·, 8, 8, ·, 2.4
O=C(CSc1nnc(-c2cccnc2)o1)Nc1cccc(Cl)c1
 : 3403, 2, -36, -4, 19, -6, 5.4
Cc1cc(C)c(NC(=O)CSc2cccc[n+]2[O-])c(C)c1
 : 3668, 4, -22, 17, 8, ·, 2.7
O=C(CNC1CCCCC1)N1CCc2ccccc2C1
 : 7051, 4, -6, 5, -3, -2, 2.5
Cc1cc(C(=O)O)c(C)n1-c1ccccc1
 : 4193, 10, -14, ·, ·, -6, -2.3
CCOc1cc(C(=S)N2CCOCC2)ccc1OS(=O)(=O)c1ccc(NC(C)=O)cc1
 : 10960, 0, -22, 13, 4, 5, 4.8
COCCNC(=O)/C(C#N)=C/c1ccc(O)c([N+](=O)[O-])c1
 : 3871, 9, -27, 6, 16, 2, 8.4
CCOc1ccccc1NC(=O)CSc1ccc(-c2ccco2)nn1
 : 5391, -6, -2, -2, 0, 9, 2.2
Cc1cc(C)nc(SC2=CS(=O)(=O)c3ccccc32)n1
 : 3729, -2, -68, 11, 9, -19, 5.9
COC(=O)C1=C(C)NC2=C(C(=O)CCC2)C1c1coc2ccccc2c1=O (stereo not drawn)
 : 2920, -6, -32, 5, 7, -2, -10.0
CCOc1ccc2nc(/N=C/c3c(C)[nH]n(-c4ccc(C)cc4)c3=O)sc2c1
 : 8011, ·, -25, ·, ·, 20, ·

Ordered by length of the SMILES (lowest first): part of the list above.
Every second line gives: Autofluor counter, Sa ugtP lethal, PrP 5UTR inh, Mtb hypoxia inh, Mtb hypoxia inh growth, BJeLR viability, Sa RN4220 lethal
Cc1ccc(-c2cc(=O)c3cc(F)ccc3[nH]2)cc1
 : 3919, -5, -41, 17, 9, 3, 3.9
CC1CCCC(C)N1CCNC(=O)Cn1nc(-c2ccccc2)ccc1=O (stereo not drawn)
 : 13311, -2, -8, -9, -10, 1, 4.7
COc1ccc(C(=O)/C=C/c2ccc(OC)c(Cn3nnc4ccccc43)c2)cc1
 : 2016, 1, -21, 3, 5, -23, -6.0

The listing picks up; the three compounds before the break are reprinted first.
Every second line gives: Autofluor counter, Sa ugtP lethal, PrP 5UTR inh, Mtb hypoxia inh, Mtb hypoxia inh growth, BJeLR viability, Sa RN4220 lethal
Cc1cc(C)nc(SC2=CS(=O)(=O)c3ccccc32)n1
 : 3729, -2, -68, 11, 9, -19, 5.9
COC(=O)C1=C(C)NC2=C(C(=O)CCC2)C1c1coc2ccccc2c1=O (stereo not drawn)
 : 2920, -6, -32, 5, 7, -2, -10.0
CCOc1ccc2nc(/N=C/c3c(C)[nH]n(-c4ccc(C)cc4)c3=O)sc2c1
 : 8011, ·, -25, ·, ·, 20, ·
CN1CCN(C(=O)/C=C/c2cn(-c3ccccc3)nc2-c2ccc3c(c2)OCCO3)CC1
 : 5002, -2, -4, 10, 10, 8, 3.4
COc1ccc(C)cc1S(=O)(=O)n1c([N+](=O)[O-])cnc1C
 : 3879, 7, -32, 0, 9, 4, 4.4
O=C(/C=C(\c1ccccc1)n1cncn1)c1ccccc1
 : 2038, 5, -21, -10, -4, -10, 2.4
O=C(CN1CCN(CC(=O)Nc2ccccc2Cl)CC1)Nc1ccc(F)c(F)c1
 : 3420, -8, -16, 10, -1, -2, -1.7
COc1cc(C=NNc2ccc(Cl)c(C(=O)O)c2)ccc1OCC(=O)N1C(C)CCCC1C (stereo not drawn)
 : ·, -73, ·, 8, -2, ·, 10
COc1ccc2c(c1)C(C)=CC(C)(C)N2S(=O)(=O)c1ccc(Br)cc1
 : 4632, 86*, 39, 20, 2, 49, -2.3
O=C1c2ccccc2C(=O)N1Cc1nc2ccccc2c(=O)n1CCN1CCOCC1
 : 3391, 5, -27, 8, 4, -7, 4.6
O=C(CN1CCOCC1)N/N=C/c1ccco1
 : 4065, ·, -42, ·, ·, 6, ·
O=C(C#Cc1ccccc1)Nc1ccc(F)cc1
 : 4170, 2, -62, 5, -5, 12, 8.9
COc1ccccc1C(=O)NCCc1c(C)[nH]c2c(C)ccc(F)c12
 : 3941, 3, -17, 4, 4, 0, 2.3
Cc1ccc(-c2cc(C(=O)NCC3CCCO3)no2)cc1 (stereo not drawn)
 : 12501, -2, -47, -2, 1, -14, 4.0
CC(=O)N1N=C(c2ccccc2)OC12CCCC2
 : 2770, 4, -9, 13, 4, -5, 8.1
CC1CN(C(=O)c2cc(S(=O)(=O)N3CCN(c4ccccc4)CC3)ccc2Cl)CC(C)O1 (stereo not drawn)
 : ·, 5, -17, 9, 2, 12, 0.9
COc1cccc(C=NNC(=O)c2cc(-c3cccn3C)n[nH]2)c1
 : ·, -20, ·, 7, 14, ·, 1.0
Cc1noc(C)c1COc1ccccc1C(=O)N(C)Cc1ccc(C(C)(C)C)cc1
 : 6412, 4, -6, 10, 4, ·, 1.7
COc1cc(/C(C)=N/NC(=O)C(O)(c2ccccc2)c2ccccc2)ccc1O
 : 3701, ·, -31, ·, ·, -4, ·
C=CCc1ccc(OCc2ccc(C(=O)Nc3ccc(NC(C)=O)cc3)o2)c(OC)c1
 : 3508, -4, -14, 4, 1, -4, 2.8
CN(C)C=NS(=O)(=O)c1ccc(Cl)c(Cl)c1
 : ·, -1, ·, 11, 4, ·, 5.0
O=C1CSC2N1CCNC21CCCCC1 (stereo not drawn)
 : 3285, -9, -22, 2, 9, 5, -14
C[n+]1ccc(-c2ccncc2)cc1
 : 5000, -2, -8, 2, 10, -3, 7.9
Cc1nc(NC(=O)/C=C/c2ccccc2)sc1C(=O)N1CCCCC1
 : 3295, 18, -27, 8, -8, 4, 2.1
COc1ccc(Cl)cc1S(=O)(=O)N1CCN(C(=O)c2ccco2)CC1
 : 4678, 8, -9, ·, ·, 3, 3.0
COc1cc(C(O)c2nc3ccccc3s2)cc(OC)c1OC (stereo not drawn)
 : 4474, 2, -23, -6, 2, 10, 2.4
COc1ccc(Cn2nnnc2C(c2ccccc2Cl)N2CCN(C)CC2)cc1 (stereo not drawn)
 : 4731, -6, 3, ·, ·, 4, 0.6
Cc1ccc(OCC(=O)NNC(=O)CCC(=O)NCc2ccccc2)cc1
 : 22071*, -5, 3, -5, 2, -1, -5.3
CN(C)c1ccc(C2CNC(c3ccc(Cl)c([N+](=O)[O-])c3)c3[nH]c4ccccc4c32)cc1 (stereo not drawn)
 : 4005, -3, -12, -9, 1, 7, -3.3
N#Cc1ccc(NC(=O)c2cccs2)nc1
 : 3540, 5, -28, -2, 8, -2, 1.4
CNC(=O)c1sc(=S)n(-c2ccc(OC)cc2)c1N
 : 2576, 3, -5, -15, -4, -8, 0.6
CC(NC(=O)C(=O)NN=Cc1ccccc1)c1ccccc1 (stereo not drawn)
 : ·, -1, ·, 9, 11, ·, 3.8
Nc1ncnc2c1ncn2[C@@H]1O[C@H](CNCC(O)CO)[C@@H](O)[C@H]1O (stereo partly drawn)
 : 3468, 2, -16, -4, 3, ·, 2.2
COc1ccc(C(=O)NN=Cc2ccc(OC)c(COc3ccc(F)cc3)c2)cc1
 : ·, -6, ·, -2, 3, ·, -2.5
O=C(Nc1cccc(S(=O)(=O)N2CCCCC2)c1)c1ccc(Cl)nc1
 : 4192, -9, -25, -5, 6, ·, 14
C=C(C)C(=O)Nc1cccc(C2=NOC3(C2)CC(C(N)=O)N(C(=O)C2CCC(=O)N2)C3)c1 (stereo not drawn)
 : ·, -8, ·, 8, 6, ·, 5.3
CCN(CC)S(=O)(=O)c1cc(NS(=O)(=O)c2cccc(Cl)c2)ccc1C
 : 7326, -9, -30, 4, 15, 3, 16
Cc1cccc2cc(COC(=O)c3ccco3)c(=O)[nH]c12
 : 3764, 0, -12, ·, ·, 4, -1.0
COc1c2ccoc2cc2oc(=O)ccc12
 : 5815, -28, -35, ·, ·, ·, 0.1
O=C(O)C1=C[C@@H](C2CCCCC2)C[C@@H](OCc2ccc(CO)cc2)O1
 : 3533, ·, -4, ·, ·, -6, ·
Cc1cccc(NC(=S)NC2CCCCCC2)c1C
 : 2070, 1, -33, -11, -8, -3, 4.3

Entries listed so far containing a furan ring, fused or not, in the order listed:
Every second line gives: Autofluor counter, Sa ugtP lethal, PrP 5UTR inh, Mtb hypoxia inh, Mtb hypoxia inh growth, BJeLR viability, Sa RN4220 lethal
CCOc1ccccc1NC(=O)CSc1ccc(-c2ccco2)nn1
 : 5391, -6, -2, -2, 0, 9, 2.2
O=C(CN1CCOCC1)N/N=C/c1ccco1
 : 4065, ·, -42, ·, ·, 6, ·
C=CCc1ccc(OCc2ccc(C(=O)Nc3ccc(NC(C)=O)cc3)o2)c(OC)c1
 : 3508, -4, -14, 4, 1, -4, 2.8
COc1ccc(Cl)cc1S(=O)(=O)N1CCN(C(=O)c2ccco2)CC1
 : 4678, 8, -9, ·, ·, 3, 3.0
Cc1cccc2cc(COC(=O)c3ccco3)c(=O)[nH]c12
 : 3764, 0, -12, ·, ·, 4, -1.0
COc1c2ccoc2cc2oc(=O)ccc12
 : 5815, -28, -35, ·, ·, ·, 0.1
